Polio RdRp inh: inhibitors of poliovirus RNA polymerase binding and polymerization | P03300 | poliovirus polymerase elongation, fluorescence polarization; stronger effect = lower value | % elongation, % (compound at 16.7 µg/mL) | 150,000 compounds, 0.66% hits; in the data active = % elongation below about 90%; also: some results filed as inactive read as strong as hits
MbtI inh: blocks the Mycobacterium tuberculosis siderophore enzyme MbtI | P9WFX0 | purified MbtI enzyme, fluorescence intensity read-out | inhibition, %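 (about 17 µg/mL by stock and volumes)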 | 100,000 compounds, 0.89% hits | AID 493033;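 active = above 50% in both replicates, above 80% if mildly self-fluorescent; inactive = the rest, strongly fluorescent compounds included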;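 also: 0% = mean of negative and 100% = mean of positive controls; one replicate is shown; some compounds called inactive have numbers as strong as hits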
Target sequence (P9WFX0 whole entry, looked up): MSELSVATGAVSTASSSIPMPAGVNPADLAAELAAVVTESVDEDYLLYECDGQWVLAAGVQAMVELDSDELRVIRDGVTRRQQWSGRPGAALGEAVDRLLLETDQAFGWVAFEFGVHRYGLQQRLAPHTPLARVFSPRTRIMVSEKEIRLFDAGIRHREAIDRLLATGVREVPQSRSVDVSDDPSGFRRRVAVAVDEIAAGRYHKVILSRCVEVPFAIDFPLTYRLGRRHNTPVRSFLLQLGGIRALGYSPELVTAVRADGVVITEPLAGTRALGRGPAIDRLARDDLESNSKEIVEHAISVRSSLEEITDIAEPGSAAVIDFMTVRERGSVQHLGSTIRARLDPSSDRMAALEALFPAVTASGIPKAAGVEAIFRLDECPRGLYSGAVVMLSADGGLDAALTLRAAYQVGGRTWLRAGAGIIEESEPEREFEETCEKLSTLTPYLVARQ
MenB inh: Mtb MenB enzyme inhibition | P9WNP5 | AID 540299 | MenB enzyme assay, absorbance read-out; some hits fall short of the stated cut | 100,000 compounds, 0.43% hits | inhibition, %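 (about 12 µg/mL by stock and volumes)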;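 active = mean of two replicates above 30%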;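 also: 0% = no compound and 100% = wells with inactive enzyme; the first replicate is given; strong numbers were not always called active; inactives centre near -10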
Target sequence (P9WNP5 whole entry, looked up): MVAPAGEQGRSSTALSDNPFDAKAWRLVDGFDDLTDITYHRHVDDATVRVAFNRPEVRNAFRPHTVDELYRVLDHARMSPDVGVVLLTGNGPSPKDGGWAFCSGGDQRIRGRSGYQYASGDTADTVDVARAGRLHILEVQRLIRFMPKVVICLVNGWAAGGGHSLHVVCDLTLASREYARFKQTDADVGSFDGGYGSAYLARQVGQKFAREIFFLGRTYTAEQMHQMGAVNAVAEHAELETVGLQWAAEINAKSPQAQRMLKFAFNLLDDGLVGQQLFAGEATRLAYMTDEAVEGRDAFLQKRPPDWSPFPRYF
Polio RdRp inh intensity: recorded beside Polio RdRp inh, whose call it bears; % elongation; measured here: total intensity read-out; formula for this scale not given here;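 total fluorescence in place of polarization; lower means less elongation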
* hit, by the source's call; i = inactive; · = no result given. Compounds were not picked by outcome. About 2% of those tested had a hit in this group.

SMILES | Polio RdRp inh | Polio RdRp inh intensity | MbtI inh | MenB inh
COc1ccc(-c2noc(C3CCCN(C(=O)c4ccccc4)C3)n2)cc1 (stereo unspecified) | 101 | 101 | -11 | -13
Cc1cccc(-c2nc(NCCCN3CCOCC3)c3ccccc3n2)c1 | 104 | 117 | -4 | 5
O=C(NCCO)C1(c2ccc(Cl)cc2)CCCC1 | 102 | 97 | -27 | -21
COc1ccc(OCCCC(=O)N2CCCC(C(N)=O)C2)cc1 (stereo unspecified) | 103 | 108 | -3 | -9
CN(C)c1ccc(C(=O)OCC(=O)C(C)(C)C)cc1 | 108 | 109 | 11 | 3
CCCCN(C)C(=O)c1c[nH]c2ccc(S(=O)(=O)Nc3cccc(OC)c3)cc2c1=O | 101 | 95 | -10 | -5
COCCNC(=O)c1ccccc1NS(=O)(=O)c1ccc(F)cc1 | 101 | 102 | -70 | -7
Cc1nn(-c2ccccc2)nc1CNC(=O)C1CC1 | 104 | 110 | -19 | 6
Cc1ccc(NC(=C(C#N)C#N)c2ccccc2)cc1 | 102 | 101 | 12 | 9
O=C(Nc1ccncc1)C1(c2ccccc2)CCCC1 | 111 | 111 | · | -1
CCOC(=O)N1CCN(C(=O)C2CC(=O)N(c3ccc(OC)cc3)C2c2ccc(OC)cc2)CC1 (stereo unspecified) | 102 | 97 | 4 | 2
CC1(C)CC2(CCCN(CCCN3CCCC4(CCOC(C)(C)C4)C3)C2)CCO1 (stereo unspecified) | 93 | 86 | · | -11
CN(C)c1ccc(/C=N/n2cnnc2)cc1 | 100 | 102 | 3 | -48
CC(=O)N[C@@H](CC(=O)O)C(=O)N[C@@H](CCC(=O)O)C(=O)O | 99 | 100 | -2 | -5
CCn1c(=O)c2c3c(sc2n2c(SCc4ccc(OC)cc4)nnc12)CCCC3 | 102 | 100 | 21 | -1
C=CCc1c(C)nc(-c2ccccc2)[nH]c1=O | 100 | 94 | · | -18
O=c1ccc(C(F)(F)F)cn1Cc1cc(=O)n2ccsc2n1 | 102 | 110 | -12 | -16
CCCC1=NN(c2ccc(C(=O)OCC)cc2)C(=O)C1 | 100 | 101 | -20 | -70
CC(C)c1cccc(C(C)C)c1NC(=O)/C=C/c1ccco1 | 104 | 99 | -12 | ·
CCOC(=O)C1(C#N)C(N)=C(C#N)C(c2ccccc2)=CC1c1ccccc1 (stereo unspecified) | 105 | 108 | · | -29
Cn1c(C/C(N)=N/O)nc2ccccc21 | 101 | 107 | 6 | -9
Cc1ccc(S(=O)(=O)NC2=NCN(CCCN3CCOCC3)CN2)cc1 | 101 | 102 | -11 | -31
Cc1nn(-c2ccccc2)c(C)c1NC(=O)CN1CCCCC1C (stereo unspecified) | 103 | 103 | -4 | -4
Cc1ccc(Nc2nc(-c3ccc(S(=O)(=O)N4CCCC4)cc3)cs2)cc1 | 102 | 105 | · | -21
CCOC(=O)N1CCCN=C1NNc1cc(F)ccc1F | 104 | 106 | 5 | 2
CN(C)CCOC(=O)c1ccco1 | 102 | 103 | -6 | -4
N#CC1CCCc2c1[nH]c1ccc(Br)cc21 (stereo unspecified) | 101 | 102 | -2 | 0
O=C(Nc1c(C(=O)N(Cc2ccco2)CC2CCCO2)oc2ccccc12)C1CCCC1 (stereo unspecified) | 100 | 104 | -104 | -16
Cc1ccc(-c2n[nH]c(=O)c3ccccc23)cc1S(=O)(=O)N1CCN(CCO)CC1 | 101 | 101 | 12 | 17
COC(=O)c1cc2c(ccn2-c2ccc(F)cc2)n1Cc1ccccc1 | 102 | 105 | 90 | -79
Cc1ccc(-c2nc(C#N)c(N3CCC(C(N)=O)CC3)o2)cc1 | 101 | 101 | 106 | -5
CCC(=O)Nc1ccc2c(c1)nc1n2CCN(Cc2ccccc2)C1 | 105 | 106 | 115 | -5
CCC(=O)Nc1nnc(SCC(=O)N2CCCc3ccccc32)s1 | 103 | 99 | -2 | -21
C/C(N)=C(/C#N)C(=O)CN1C(=O)NC(C)(c2ccc3c(c2)OCO3)C1=O (stereo unspecified) | 101 | 109 | 8 | -3
C=CCN(CC=C)S(=O)(=O)c1cc(Cl)ccc1Cl | 103 | 104 | -7 | -3
O=C(O)c1cc2c([nH]c1=O)CCC2 | 103 | 101 | 91 | -5
COC(=O)c1sc(C)cc1OC(=O)c1ccc(OC)cc1 | · | · | -7 | -16
O=C(OC1CSc2nc3ccccc3n2C1)c1ccccc1Cl (stereo unspecified) | 102 | 101 | 5 | -5
CC(C)(C)/C=N/NS(=O)(=O)c1ccc(Cl)s1 | 100 | 104 | 18 | -12
C/C=C/C(=O)Nc1ccc(OC)cc1 | 100 | 101 | -16 | -54
O=C(O)c1ccccc1-c1ccc(-c2cc(C(=O)O)c3cc(F)ccc3n2)o1 | 98 | 99 | 2 | -80
c1ccc(Nc2nc(N3CCCCC3)nc(N3CCCCC3)n2)cc1 | 103 | 101 | -9 | -44
COc1cc(C=Nc2ccc(C(=O)c3ccccc3)cc2)cc(OC)c1OC | 104 | 98 | · | -10
Clc1ccc(Cn2c(CN3CCCC3)nc3ccccc32)cc1 | 101 | 102 | -3 | -2
Clc1ccc(/C=N/n2cnnc2)cc1 | 101 | 103 | 13 | 9
CC(C)NC(=O)Cn1cc2c(n1)CCCC2 | 104 | 103 | -8 | -9
COC(=O)C1Cc2ccccc2CN1C(=O)CSc1nc(C)cs1 (stereo unspecified) | 105 | 105 | 15 | -4
COc1ccc(CNC(=O)C(C)Sc2nc(N)cc(N)n2)cc1 (stereo unspecified) | 101 | 104 | -8 | -2

A second format for 3 compounds above.
compound: O=C(OC1CSc2nc3ccccc3n2C1)c1ccccc1Cl (stereo unspecified)
  Polio RdRp inh = 102	Polio RdRp inh intensity = 101	MbtI inh = 5	MenB inh = -5

compound: C/C=C/C(=O)Nc1ccc(OC)cc1
  Polio RdRp inh = 100	Polio RdRp inh intensity = 101	MbtI inh = -16	MenB inh = -54

compound: c1ccc(Nc2nc(N3CCCCC3)nc(N3CCCCC3)n2)cc1
  Polio RdRp inh = 103	Polio RdRp inh intensity = 101	MbtI inh = -9	MenB inh = -44

(more compounds)
SMILES | Polio RdRp inh | Polio RdRp inh intensity | MbtI inh | MenB inh
O=C(O)c1ccccc1SC1CC(=O)N(c2ccc(N3CCCCC3)cc2)C1=O (stereo unspecified) | 101 | 100 | 23 | -9
O=C(Nc1nc2ccc(Cl)cc2s1)c1ccc(Br)s1 | 103 | 105 | 3 | ·
COc1ccc2cc(-c3nc(-c4cccs4)cs3)c(=O)oc2c1 | 92 | 111 | i | -15
COc1ccccc1NC(=O)c1cc(Sc2nncn2C)nc2ccccc12 | 103 | 99 | -2 | -22
CCOc1ccccc1N=Nc1c(C)[nH]n(C(N)=S)c1=O | 99 | 103 | 5 | -22
C=CCNC(=O)COc1ccc(-n2cnnn2)cc1 | 96 | 104 | -1 | 1
Cc1noc(C)c1CSc1nc2ccccc2nc1NS(=O)(=O)c1ccc(Cl)cc1 | 101 | 104 | -63 | -2
c1ccc(-n2c(Sc3ncnc4c3oc3ccccc34)nnc2C2COc3ccccc3O2)cc1 (stereo unspecified) | 99 | 98 | 18 | -9
CCN1C(=O)c2ccccc2S(=O)(=O)c2ccc(C(=O)NCC(OC)OC)cc21 | 100 | 100 | 6 | -22
Cc1ccccc1C(=O)Nc1cccc(-c2cn3ccccc3n2)c1 | 101 | 104 | i | -21
O=C(/C=C/c1ccccc1)Nn1cnc2c(cnn2-c2ccccc2)c1=O | 100 | 100 | -6 | -12
Cc1cccc(NS(=O)(=O)c2cccc(C(=O)N3CCN(C)CC3)c2)c1 | 106 | 111 | -4 | -2
O=C(Nc1ccccc1I)c1cc[n+]([O-])cc1 | 103 | 101 | -7 | ·
O=C(O)CNCC(O)Cn1c2ccccc2c2ccccc21 (stereo unspecified) | 104 | 108 | 2 | -72
Cc1ccc(SCC(=O)NN)cc1 | 102 | 102 | -6 | 0
O=C1CC(c2ccc(F)cc2)CC2=C1C=Nc1ccccc1N2 (stereo unspecified) | 99 | 100 | 9 | 1
CCc1nc2ccccc2n1CC(=O)N(C(C)CC)C1CCS(=O)(=O)C1 (stereo unspecified) | 91 | 95 | -2 | -23
Cc1noc(/C=C/N(C)C)c1S(=O)(=O)N(C)CCc1ccc(Cl)cc1 | 104 | 98 | 0 | -7
C[C@H](NS(=O)(=O)c1ccccc1F)C(=O)OCc1ccccc1F | 108 | 101 | 5 | -7
O=S(=O)(NC1CCN(Cc2c(F)cccc2Cl)CC1)c1ccc(C(F)(F)F)cc1 | 102 | 101 | 1 | -16
CNc1ccccc1-n1ccc(-c2ccccc2)n1 | 98 | 103 | -30 | -1
O=C1CCC/C(=N\Nc2ccccc2)C1 | 100 | 100 | 17 | 2
c1ccc2c(N3CCCCC3)nc(N3CCCCC3)nc2c1 | 101 | 98 | 42 | -14
Cc1nn(Cc2ccccc2)c(Cl)c1C(=O)OCc1nnc(-c2ccc(Cl)cc2)o1 | 103 | 101 | -12 | -87

One compound at a time, as listed above. Order of screens: Polio RdRp inh | Polio RdRp inh intensity | MbtI inh | MenB inh
CCc1nc2ccccc2n1CC(=O)N(C(C)CC)C1CCS(=O)(=O)C1 (stereo unspecified) is listed as 91 | 95 | -2 | -23
Cc1noc(/C=C/N(C)C)c1S(=O)(=O)N(C)CCc1ccc(Cl)cc1 is listed as 104 | 98 | 0 | -7

Looked up by structure from the list above:
SMILES | Polio RdRp inh | Polio RdRp inh intensity | MbtI inh | MenB inh
C[C@H](NS(=O)(=O)c1ccccc1F)C(=O)OCc1ccccc1F | 108 | 101 | 5 | -7
CCc1nc2ccccc2n1CC(=O)N(C(C)CC)C1CCS(=O)(=O)C1 (stereo unspecified) | 91 | 95 | -2 | -23
O=C1CCC/C(=N\Nc2ccccc2)C1 | 100 | 100 | 17 | 2

Continued.
SMILES | Polio RdRp inh | Polio RdRp inh intensity | MbtI inh | MenB inh
c1ccc2c(c1)CCN(CCCNc1nc3ccccc3n3nnnc13)C2 | 97 | 132 | 12 | -7
O=C(CCCN1C(=O)C(c2ccccc2)Oc2cccnc21)NC1CCN(Cc2ccccc2)CC1 (stereo unspecified) | 103 | 101 | -19 | 0
Cc1cc(C(=O)OCC(=O)NCc2ccco2)c(C)n1-c1ccc(F)cc1 | 103 | 106 | -12 | ·
CC1CN(C(=O)Cn2cc(C(F)(F)F)cc(Cl)c2=O)CC(C)O1 (stereo unspecified) | 105 | 98 | 5 | 12
CC(=O)OC(C(=O)Nc1cccc(C)n1)c1ccccc1 (stereo unspecified) | 102 | 103 | 19 | 5
COC(=O)/C=C1/N/C(=N/c2nc3ccccc3s2)NC1=O | 100 | 100 | -48 | 0
CCOC(NC(=O)Nc1ccc(Br)cc1)(C(F)(F)F)C(F)(F)F | 108 | 104 | -7 | -5
OC(CN1CCCCC1)CN1c2ccccc2Sc2ccccc21 (stereo unspecified) | 103 | 96 | 0 | -25
C=CCN(CC=C)C(=O)C[n+]1cccc(C(N)=O)c1 | 101 | 100 | 6 | -26
COc1cccc(OC)c1C(=O)NCC#N | 100 | 104 | -19 | 9
O=C(O)c1ccccc1N=Nc1c(O)c2ccccc2oc1=O | 106 | 99 | -2 | -230
Cc1sc2nc(CN(C(=O)c3cccs3)C3CCCC3)[nH]c(=O)c2c1C | 100 | 106 | 3 | -7
Cc1cc2ccccc2n2c(SCC(=O)O)nnc12 | 101 | 101 | -20 | -5
CSc1nc2cc(C)nn2c(-c2ccccc2Cl)c1C#N | 108 | 113 | -7 | -35
CN(C)c1cccc(C(=O)OCC(=O)Nc2ccccc2Cl)c1 | 97 | 105 | -41 | -10
CC(=O)N1Cc2ccccc2CC1C(=O)Nc1ccc(F)cc1C (stereo unspecified) | 100 | 114 | 4 | -14
CCc1cccc(C)c1Nc1c(-c2ccsc2)nc2cnccn12 | 101 | 102 | -20 | -40
COC(=O)c1nnn(-c2nonc2N)c1CN1CCC(Cc2ccccc2)CC1 | 105 | 102 | -8 | -11
Cc1[nH]c2ccccc2c1SCc1nnc(SCc2ccc(Cl)cc2)n1C | 100 | 102 | -11 | -5
Cc1cccc(C(=O)N/C(=C/c2ccc(N(C)C)cc2)C(=O)O)c1 | 99 | 102 | 8 | -8
O=c1ccc(C(F)(F)Cl)c[nH]1 | 103 | 108 | -12 | ·
O=C(O)/C=C/C(=O)Nc1ccc(-c2nc3ccccc3o2)cc1 | 100 | 100 | 5 | 11
CCC(C)NC(N)=S (stereo unspecified) | 99 | 98 | 8 | -23
CNNCc1ccc(C(=O)NC(C)C)cc1 | 99 | 98 | 23 | -7
N#Cc1ccc(OCC(=O)N2CCC(C(N)=O)CC2)cc1 | 104 | 104 | -3 | ·
O=C(CSc1ncccn1)NC(=O)Nc1ccc2c(c1)OCCO2 | 100 | 101 | -3 | -8
O=C1NC(c2ccc(Cl)cc2)Nc2ccccc21 (stereo unspecified) | 105 | 99 | i | -16
CC(C)CC1Nc2ccc(C(=O)N3CCCCC3)cc2NC1=O (stereo unspecified) | 101 | 102 | 15 | -18
CCC(C)N(CC)C(=O)C1C(=O)CC(C)(C)CC1=O (stereo unspecified) | 99 | 102 | 9 | 16
CCc1cccc(CC)c1NC(=O)/C(C#N)=C/c1c(C)nn(-c2ccccc2)c1N1CCCC1 | 108 | 104 | 2 | -9
CCOC(=O)Cc1nnc(SCc2ccc(C#N)cc2)n1Cc1ccco1 | 101 | 104 | 1 | -7
c1ccc(CNCC2COc3ccccc3O2)cc1 (stereo unspecified) | 102 | 100 | -4 | 26
O=C(Cn1nnc2ccccc2c1=O)N1N=C(c2cccs2)CC1c1cccs1 (stereo unspecified) | 109 | 111 | -6 | -1
OC(CN1CCN(c2cccnc2)CC1)Cn1nnnc1-c1ccccc1 (stereo unspecified) | 104 | 106 | -10 | -19

Bioassay records from PubChem BioAssay.
